From PubChem
Yeast UUG start – yeast start codon fidelity modulation; activity score, % at 18.7 µM; AID 602363; S. cerevisiae UUG-firefly luciferase reporter, luminescence/redox ratio; 0.13% of 350,000 active;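 active means replicate mean at a twofold rise or more, about +100% in these data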;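 further: firefly luciferase made from a UUG start codon reports start codon fidelity; reporter light over untreated wells divided by growth signal over untreated wells; some hits fall short of that in this replicate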
MT1-MMP act inh – blocks activation of human MT1-MMP; P50281; 0.061% of 360,000 active; GFP/RFP ratio change, % at 20 µM; HT1080 RFP-PRO-GFP cells, GFP/RFP ratio fluorescence, overnight; percent of plate control window, DMSO zero;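 active means GFP/RFP ratio change of at least 30% with cell ATP level not reduced by more than half and red fluorescence within 50% of control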; further: strong numbers were not always called active
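Assay system: HT1080 cells carrying an RFP-PRO-GFP reporter | Dosing: Single dose of 20 µM compound, 1% DMSO final | Incubation: Cells overnight before dosing, compound overnight, 37 °C, 5% CO2 | Evaluation: GFP/RFP fluorescence ratio | Control set: DMSO and RFP-L50D-GFP cell wells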
eIF4H inh – inhibitors of RNA binding by human eIF4H. Q15056. eIF4H fluorescence polarization binding assay. inhibition, % at 35 µM. 0.94% of 290,000 active. AID 2012;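 active means 50% or more with normal probe brightness, or confirmed in later tests; inconclusive means above 50% with abnormal brightness, or retests that disagree; inactive means below 50% or failed in later tests; about a fifth of its hits are not listed in these tables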;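 further: calls also rest on retests at 20 µM and on dose response follow-up; 0% = protein and probe with vehicle and 100% = probe without protein; strong numbers were not always called active; many hits fall short of the cut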
Rce1 inh – blocks yeast Ras-converting enzyme. Q03530. yeast membranes, quenched prenylated peptide cleavage fluorescence. calls only. 0.27% of 290,000 active;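 active means fall in fluorescence gain of 50% or more versus controls, with final raw signal at or below 3038400; inconclusive means same 50% fall but final raw signal above 3038400; inactive means fall in fluorescence gain under 50%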;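 further: plate controls were neutral control wells for no effect and wells lacking membranes for full effect; tested at 10 µM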
Target sequence (Q03530 whole entry, looked up): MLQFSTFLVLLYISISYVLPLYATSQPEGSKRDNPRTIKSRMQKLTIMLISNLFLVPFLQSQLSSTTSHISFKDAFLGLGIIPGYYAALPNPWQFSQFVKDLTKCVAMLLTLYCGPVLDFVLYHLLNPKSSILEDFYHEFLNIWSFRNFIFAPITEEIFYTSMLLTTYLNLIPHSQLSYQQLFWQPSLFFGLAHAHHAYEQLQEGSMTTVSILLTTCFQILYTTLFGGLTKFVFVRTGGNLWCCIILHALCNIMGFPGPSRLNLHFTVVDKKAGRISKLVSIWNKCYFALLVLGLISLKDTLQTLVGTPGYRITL
HIV Env fusion – HIV envelope-mediated fusion inhibition. 1.1% of 360,000 active. inhibition, % at 12.3 µM. HeLa-JRFL Env/CEM21 cell fusion, luciferase. AID 651610;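 active means mean replicate inhibition score of at least 50 and every replicate individually at or above 50; inconclusive means only one of the two criteria met; inactive means mean below 50 and not all replicates reaching 50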;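 further: 0% = plate neutral controls and 100% = maraviroc near 300 nM; one replicate is shown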
PABP FP inh – blocks human PABP binding to poly(A) RNA | AID 2014 | fluorescence polarization | inhibition, % at 35 µM | 1% of 290,000 active;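 active means 50% or more with normal probe brightness, or confirmed in later tests; inconclusive means above 50% with abnormal brightness, or retests that disagree; inactive means below 50% or failed in later tests; about a fifth of its hits are not listed in these tables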;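 further: calls also rest on retests at 20 µM and on dose response follow-up; controls were probe without protein and protein plus probe with vehicle; some compounds called inactive have numbers as strong as hits; many hits fall short of the cut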
CSC inhib – cancer stem cell inhibition; inhibition, % at 7.5 µM; cancer stem cell-like cells viability, luminescence; 1.1% of 300,000 active;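 active means mean at 75% or more and at least half the replicates too; inconclusive means mean and replicates disagree; tested in HMLE shEcad cells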;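 further: 0% = median of negative and 100% = median of positive control wells; the first replicate is given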
eIF4H inh retest – also measured in eIF4H inh; calls as there; inhibition, %; compound at 20 µM; confirmation average;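 mean of two retest wells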
PABP FP inh retest – recorded beside PABP FP inh, whose call it bears; inhibition, %; compound at 20 µM; confirmation repeats;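 mean of two retest wells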
MT1-MMP act inh RFP – also measured in MT1-MMP act inh; calls as there; RFP signal change, %; measured here: RFP expression control read;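 0 = vehicle wells; hits needed this value within 50% of zero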
* = called active by the depositor; i = inactive; u = inconclusive; x = not tested or not shown; & = joins results of further samples.

SMILES	Yeast UUG start	MT1-MMP act inh	MT1-MMP act inh RFP	eIF4H inh	Rce1 inh	HIV Env fusion	PABP FP inh	CSC inhib	others
O=S(=O)(c1cccc2nsnc12)N1CCOCC1	-8.8	7.6	5.0	-1.6	i	x	-1.5	-8.0
O=C(NC(=S)NCCC1=CCCCC1)c1ccc(Br)o1	x	0.8	1.3	-1.7	i	-4.2	-6.2	9.4
O=C(Nc1nccs1)c1ccc(N2CCOCC2)c([N+](=O)[O-])c1	-10.3	-3.0	-2.0	-12.2	i	-154.0	-8.0	15.6
CCn1cc(/C=C(\NC(=O)c2ccc(OC)c(OC)c2)C(=O)N2CCN(C)CC2)c2ccccc21	8.7	-1.6	1.3	-7.0	i	1.3	-2.6	4.6
Cn1nc(C(C)(C)C)cc1C(=O)N1CCCCC1c1cc(C(=O)Nc2ccccc2Cl)no1 (stereo not given)	-4.1	-6.3	-23.4	x	x	4.5	x	x
O=C(CCc1nc2ccccc2c(=O)[nH]1)N1CCN(S(=O)(=O)c2ccccc2Br)CC1	x	-13.1	-5.5	x	i	x	x	-5.6
CCc1nc2oc3cc(OC)ccc3c(=O)c2c(=O)n1Cc1ccco1	19.6	-5.0	17.2	51.7*	x	-84.0	70.7*	-12.2
CC(O)CC(=O)NOCc1ccccc1 (stereo not given)	5.1	4.2	4.5	x	x	16.5	x	x
C[C@@H]1CCCCO[C@H](CN(C)S(=O)(=O)c2cn(C)cn2)[C@@H](C)CN([C@H](C)CO)C(=O)c2cc(NC(=O)c3ccncc3)ccc2O1	17.2&-9.6	-0.4	-0.5	x	x	-15.1	x	x
CC1CCN(C(=O)COC(=O)CNC(=O)C23CC4CC(CC(C4)C2)C3)CC1	3.7	4.5	2.7	x	i	38.2	x	-9.2
C[C@@H]1ON(C)[C@H]2C[C@H]3c4[nH]c5ccc(-c6ccc7c(c6)OCO7)cc5c4CCN3C(=O)[C@@H]12	-10.4	-1.5	-6.6	x	x	1.7	x	x
NS(=O)(=O)c1ccc(NC(=O)COc2ccc(S(=O)(=O)N3CCCC3)cc2)cc1	1.2	-1.2	-4.0	-8.2	i	-12.0	7.6	x
CCOC(=O)c1ccc(CN(Cc2ccc(C)cc2)S(=O)(=O)c2cccc([N+](=O)[O-])c2)cc1	x	3.1	1.2	-10.3	i	-7.8	5.9	2.3
CCOc1cccc2cc(C(=O)N3CCc4ccccc4C3)c(=O)oc12	-13.8	2.6	7.3	-1.1	i	-5.6	-3.5	-18.0
COCCn1c(SCC(=O)N2CCCc3ccccc32)nnc1-c1ccoc1C	-4.5	1.6	-0.2	-10.6	i	0.3	13.4	x
Cc1cc(NC(=O)c2ccc([N+](=O)[O-])o2)ccc1NC(=O)c1ccco1	-21.1	-3.4	-12.7	18.9	i	-95.1	1.0	x
CN(Cc1ccc(Br)s1)C(=O)CNC(=O)c1ccc2c(c1)OCO2	0.1	0.1	0.7	x	x	x	x	8.4
O=C(c1ccccc1)c1ccc(-c2ccc(O)cc2)cc1	-6.0	-10.3	-7.6	5.9	i	-13.9	12.8	54.8
COCCN(C(=O)COC(=O)/C=C/c1ccc(C(F)(F)F)cc1)c1c(N)n(Cc2ccccc2)c(=O)[nH]c1=O	-6.9	3.5	-8.8	x	i	-19.0	x	-0.6
CN(CC(=O)Nc1ccncc1)S(=O)(=O)c1ccccc1	-12.6	1.5	1.9	-10.0	i	x	-4.1	-12.5

By substructure, those above with an aryl methoxy group (2)
SMILES	Yeast UUG start	MT1-MMP act inh	MT1-MMP act inh RFP	eIF4H inh	Rce1 inh	HIV Env fusion	PABP FP inh	CSC inhib	others
CCn1cc(/C=C(\NC(=O)c2ccc(OC)c(OC)c2)C(=O)N2CCN(C)CC2)c2ccccc21	8.7	-1.6	1.3	-7.0	i	1.3	-2.6	4.6
CCc1nc2oc3cc(OC)ccc3c(=O)c2c(=O)n1Cc1ccco1	19.6	-5.0	17.2	51.7*	x	-84.0	70.7*	-12.2

Next section:
SMILES	Yeast UUG start	MT1-MMP act inh	MT1-MMP act inh RFP	eIF4H inh	Rce1 inh	HIV Env fusion	PABP FP inh	CSC inhib	others
C[C@H]1CN([C@@H](C)CO)C(=O)CCCn2nncc2CO[C@@H]1CN(C)Cc1cccc(O)c1	-15.9&25.5	1.0	0.5	x	x	6.2	x	x
CCn1c(COc2cccc3ccccc23)nnc1SCC(=O)OC1CCCCC1	-12.9	0.8	6.5	8.0	i	x	3.0	0.7
C=CCN1CCN(C(c2cccc(OC)c2OC)c2nnnn2CCC(C)C)CC1 (stereo not given)	x	-5.3	0.2	2.3	i	-4.8	-14.2	0.4
CCCc1cc(=O)[nH]c(SCC(=O)c2cc(C)n(-c3c(C)n(C)n(-c4ccccc4)c3=O)c2C)n1	-1.2	-0.1	2.4	-8.6	i	-4.1	-18.4	-11.5
COCCNC(=S)N(CCc1c(C)[nH]c2ccccc12)Cc1ccco1	x	0.0	-3.9	-1.1	i	5.5	-4.4	-6.9
COc1ccc(C2=NN(C(C#N)c3ccc(OC)c(OC)c3)C(c3ccccc3)C2)cc1 (stereo not given)	-27.5	5.6	9.4	-10.1	i	-229.2	4.9	21.0
CCOC(=O)Cc1csc(NC(=O)COc2c(C)cccc2C)n1	x	0.7	-0.9	-3.0	i	-4.8	-1.1	-6.8
O=c1c(Cc2c(F)cccc2Cl)c(O)ccn1Cc1ccc2c(c1)OCO2	x	-3.0	-1.6	0.7	i	-5.4	0.4	-3.9
O=C(COc1ccc2c(C(F)(F)F)cc(=O)oc2c1)Nc1ccc(N2CCOCC2)cc1	x	3.8	5.7	-6.7	i	14.0	-19.8	-4.2
COc1ccccc1Oc1coc2cc(O)ccc2c1=O	-3.2	8.6	3.6	-5.3	i	x	-6.2	6.4
CCn1ncc(Br)c1C(=O)NC1CCCCCCC1	-17.4	-5.0	-1.5	-6.7	i	-30.3	0.6	-24.1
O=C(NCc1cccnc1)c1ccc(Cl)c(S(=O)(=O)Nc2ccccc2C(=O)NCc2cccnc2)c1	-19.0	0.7	2.2	-0.6	i	-8.8	5.3	-9.6
COC(=O)c1cn(-c2ccccc2)nc1-c1ccccc1	24.3	1.0	-4.4	7.8	i	x	1.6	33.1
CC1(C)CC(NC(=O)c2ccc3c(c2)OCO3)CC(C)(C)N1	-16.2	3.0	-1.2	6.8	i	x	0.9	-1.6
O=C(c1ccc2ccccc2c1)N1CCN(Cc2ccccc2)CC1	-7.4	0.7	-2.5	-3.3	i	3.2	-0.5	-16.9
COc1ccc(C/C(N)=N/n2cnnc2)cc1	-11.2	1.2	-0.4	-12.1	i	x	-4.2	-1.6
Cc1cccc(OCC(=O)N2CCN(C(=O)c3ccc([N+](=O)[O-])cc3)CC2)c1	-0.3	-0.2	3.4	-3.3	i	-3.4	-2.5	x
Cc1ccccc1C(=O)NC1CCN(Cc2nnnn2CCc2ccccc2)CC1	3.3	-5.1	-2.4	-4.8	i	-58.1	6.0	-11.7
COC(CNC(=O)CCc1c(C)nc2c(-c3ccccc3)c(C)nn2c1C)OC	-0.2	-5.3	0.5	4.4	i	3.2	11.1	-7.3
CS(=O)(=O)c1[nH]nc(-c2cccc(Cl)c2)c1C#N	-7.9	3.6	3.7	-0.5	i	-13.7	-0.5	-6.5
CCOc1ccc(-c2[nH]nc3c2C(c2ccc(O)cc2)C(C#N)=C(N)O3)cc1 (stereo not given)	x	3.3	4.6	-8.3	i	x	-9.1	-0.2
CC(C)Oc1ccc2ccccc2c1CNC[C@H]1O[C@@H](n2cnc(C(N)=O)n2)[C@H](O)[C@@H]1O	-11.1	2.9	4.5	x	x	-25.6	x	x
Cc1cc(C)n(CC(=O)NC2C(=O)N3C(C(=O)O)=C(CSc4nnc(C)s4)CSC23)n1 (stereo not given)	x	-5.4	2.2	34.9	i	7.8	22.1	11.8
CCOC(=O)C1C(=O)CC(=O)C(C(=O)OCC)C1c1ccc(O)cc1 (stereo not given)	-24.3	-3.8	1.6	x	x	-26.0	x	x
COc1ccc(OC)c(-c2cc(C(=O)Nc3c(C)nn(Cc4ccccc4)c3C)no2)c1	-6.4	-12.1	-14.2	-0.9	i	30.4	-1.2	3.3
CCCn1nc(-c2ccccc2)c2nc3ccccc3nc21	x	x	x	u	x	x	u	2.6
COc1cccc2cc(C(C)N(CCCN3CCOCC3)C(=S)Nc3ccc(C)c(C)c3)oc12 (stereo not given)	-13.0	-2.9	0.0	-4.0	i	10.6	-1.6	-7.2
CC(C)(C)n1cnc2cc(NCc3ccccc3O)ccc21	-10.2	4.7	1.5	-8.3	i	-6.5	-21.5	-0.4
CC(C)n1cnnc1SCC(=O)Nc1cccnc1Cl	-15.5	-3.2	-1.3	x	x	-4.9	x	2.5
CCOC(=O)/C(C(N)=NC)=C(\O)c1ccccc1	-18.2	-1.2	0.5	-13.2	i	x	-6.6	9.8
O=C(OCc1ccccc1)N1CCC2CC1c1cc(N3CCNCC3)ccc12 (stereo not given)	-4.8	-4.8	-6.3	x	x	4.2	x	x
O=C(O)c1ccc(-n2cc(-c3cc4ccccc4oc3=O)[nH]c2=S)cc1	x	-2.2	5.0	-4.4	x	-21.0	-1.2	x
Cc1oc(C(C)(C)C)cc1C(=O)Nc1cccc(/C=C\C(=O)O)c1	x	-2.0	-1.2	0.1	i	-2.7	3.5	-4.6
C[C@@H]1CN([C@H](C)CO)C(=O)CCCn2cc(nn2)CO[C@H]1CN(C)C(=O)C1CC1	-16.9&0.7	0.5	3.9	x	x	17.3	x	x
COc1ccccc1CNS(=O)(=O)N(C)C	x	1.3	2.9	-3.4	i	8.8	-4.0	1.8
O=C(C[n+]1ccc(Cc2ccccc2)cc1)Nc1ccccc1	x	0.7	4.7	-4.9	i	-9.7	1.0	11.0
Cc1nnc2ccc(N3CCCC3)nn12	-20.4	-1.7	1.6	0.2	i	-16.5	3.5	-6.7
O=C1Nc2ccccc2N=C(c2ccccc2)C1N1CCOCC1 (stereo not given)	-3.6	-3.3	-4.2	-6.9	x	-19.4	0.5	13.2
O=C(Nc1ccc2c(c1)OCO2)C(c1ccccc1)N1CCCCC1 (stereo not given)	-1.9	0.0	0.7	-1.7	i	-8.5	-6.1	6.2
Cc1cc(Cl)ccc1NC(=O)CN1C(=O)NC2(CCCC2)C1=O	-13.4	0.4	6.7	5.7	i	0.6	2.0	x
CCCCC1(C)NC(=O)N(CC(=O)Nc2ccc(Cl)cc2C)C1=O (stereo not given)	-15.4	3.0	1.0	x	x	-30.1	x	6.2
Cc1cccc(C)c1NC(=O)C(c1ccccc1)N1CCOCC1 (stereo not given)	-1.5	-2.3	2.0	1.8	i	-328.5	11.9	-8.4
CCN=C1S/C(=C\c2ccc(-c3cccc(C(=O)O)c3)o2)C(=O)N1CC	x	0.6	1.4	64.2*	i	x	1.0	1.9	eIF4H inh retest=111.2*;PABP FP inh retest=43.9
CCc1ccc2[nH]c(=O)c(CN(CCN(CC)CC)C(=O)NC3CCCCC3)cc2c1	5.3	-3.9	-3.6	-1.2	i	x	-5.9	-3.1
Cc1cc(NC(=O)NN2CCOCC2)nn1-c1c(Cl)cccc1Cl	x	0.7	4.4	6.3	i	-8.2	-1.4	-10.8
O=C(CSc1nnc2c(n1)[nH]c1ccccc12)Nc1ccc(S(=O)(=O)Nc2ncccn2)cc1	-19.1	2.1	5.9	-4.4	i	13.0	8.0	x
Nc1ccc(Sc2cc(Cl)nc(N)n2)cc1	x	x	x	-8.7	i	x	-1.9	-1.0
O=C(NCC1CCCCC1)c1cc([N+](=O)[O-])ccc1Cl	-8.1	-3.6	-5.9	-2.3	i	-14.1	-1.8	-9.3

These rows are one share of the data; the hit share may differ from the screen's.
